NS1 inh – blocks influenza NS1 protein function. S. cerevisiae slowed by influenza A NS1, growth recovery by OD600. Potency, µM (doses to about 46.1 µM), without a hit: top-dose activity, positive = more growth. hit rate 0.4% among 270,000; active means well fitted rising curve with a large enough effect; inconclusive means small, poorly fitted or top-dose-only effect; inactive means no such curve, though single readings can be large or run the other way; note: nearly all actives have a fitted effect of over 50% in size
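In this qHTS, NS1 from influenza A is expressed in budding yeast, where it slows growth. Cells are switched from glucose to 2% galactose medium (pH 6.0, -URA), treated with compound, and growth recovery is read at OD600.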
LASV entry inh – blocks Lassa virus binding to or entry into cells; Lassa virus pseudotype entry inhibition, cell reporter; control for the full effect not named in the record; hit rate 1.2% among 300,000; AID 540256; Potency, µM (highest dose often 37.9 µM), without a hit: top-dose activity change, negative = inhibition, hits mostly inhibitors; active means well fitted inhibition curve with a large enough effect; inconclusive means small, poorly fitted or top-dose-only effect, or effect the other way; inactive means flat fitted curve, though single readings scatter; tested in HEK293 cells; note: % is set by controls: 0 for no effect and ±100 for the full control effect; nearly all actives have a fitted effect of over 50% in size; luciferase read-out
Cruzain Triton – inhibitors of Trypanosoma cruzi cruzain with detergent; hit rate 0.43% among 200,000; purified cruzain, Z-FR-AMC fluorescence, 0.01% Triton; Potency, µM, for inactives: max response, negative = inhibition, most hits filed as inhibitors; AID 1478; P25779;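 note: plate controls were neutral wells for no effect and buffer without enzyme for full effect; nearly all actives have a fitted effect of over 40% in size; top concentration of the series not given in the record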
Target sequence (P25779 123-467 limits assumed): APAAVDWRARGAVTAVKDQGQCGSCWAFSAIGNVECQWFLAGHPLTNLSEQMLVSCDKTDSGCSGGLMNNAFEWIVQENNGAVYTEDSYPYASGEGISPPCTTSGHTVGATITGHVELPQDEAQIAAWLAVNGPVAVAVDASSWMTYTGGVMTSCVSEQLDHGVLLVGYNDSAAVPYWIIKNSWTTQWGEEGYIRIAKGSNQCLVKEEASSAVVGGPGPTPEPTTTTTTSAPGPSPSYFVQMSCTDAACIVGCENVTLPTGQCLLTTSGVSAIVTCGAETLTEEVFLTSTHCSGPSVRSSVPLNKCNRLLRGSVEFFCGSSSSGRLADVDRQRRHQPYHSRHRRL
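Z-FR-AMC hydrolysis (2 uM substrate) by cruzain (1.5 nM) monitored kinetically at ex 360/em 450 nm after 15 min room-temperature compound exposure; 0.01% Triton X-100, pH 5.5, 5 mM DTT.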
SARS PLP yeast – SARS-CoV PLP inhibition in yeast | S. cerevisiae expressing SARS-CoV PLpro, growth rescue; control for the full effect not named in the record | Potency, µM (series often up to 32.9 µM), for the others: at the top dose activity, positive = growth rescue | hit rate 0.19% among 330,000 | AID 485353; active means well fitted rising curve with a large enough effect; inconclusive means small, poorly fitted or top-dose-only effect; inactive means no such curve, though single readings can be large or run the other way; note: 0% is about no effect; nearly all actives have a fitted effect of over 55% in size; growth read by luminescence after 48 h
Marburg entry inh – blocks Marburg virus binding to or entry into cells | Marburg virus pseudotyped entry inhibition, cell reporter; control for the full effect not named in the record; about a third of the inactives were read at about 46 µM | hit rate 1.8% among 300,000 | AID 540276 | Potency, µM (doses to about 37.8 µM), without a hit: top-dose activity change, negative = inhibition, actives largely listed as inhibitors; active = well fitted inhibition curve with a large enough effect; inconclusive = small, poorly fitted or top-dose-only effect, or effect the other way; inactive = flat fitted curve, though single readings scatter; tested in HEK293 cells; about a fifth of its hits are not listed in these tables; note: % is set by controls: 0 for no effect and ±100 for the full control effect; luciferase read-out
RE007 growth inh – less growth of the S. pombe RE007 Vpr strain; S. pombe RE007 Vpr strain, BacTiter-Glo ATP luminescence, 24 h; control for the full effect not named in the record; hit rate 0.21% among 360,000; Potency, µM (top dose mostly 92.2 µM), for the others: at the highest dose activity change, negative = less growth; active = well fitted falling curve with a large enough effect; inconclusive = small, poorly fitted or top-dose-only effect; inactive = no such curve, though single readings can be large or run the other way;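 note: % is set by controls: 0 for no effect and ±100 for the full control effect; nearly all actives have a fitted effect of over 50% in size; the assay follows cell death caused by Vpr and the record does not say whether a fall means rescue or toxicity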
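Fission yeast RE007 carrying one integrated HIV-1 vpr copy, seeded at OD 0.01 in PMG+AL medium with 23 nL pinned compound. Grown 24 h at 30 degrees; viability read by BacTiter-Glo luminescence after 5 min.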
2A StopGo – FMDV 2A StopGo reporter, luciferase signal; AID 1159524; hit rate 1.2% among 410,000; Potency, µM (highest dose often 57.9 µM), for inactives: top-dose signal change, negative = less light; human cells with a luciferase reporter of 2A StopGo recoding; control for the full effect not named in the record; active = well fitted falling curve with a large enough effect; inconclusive = small, poorly fitted or top-dose-only effect; inactive = no such curve, though single readings can be large or run the other way; tested in HEK293T cells; note: % is set by controls: 0 for no effect and ±100 for the full control effect; nearly all actives have a fitted effect of over 45% in size; luciferase light after 4 h
Cruzain inh noDet – blocks cruzain activity in detergent-free assay. hit rate 2.3% among 200,000. purified cruzain, Z-FR-AMC fluorescence, no detergent. Potency, µM, inactives show max response, negative = inhibition, most hits filed as inhibitors. P25779;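 note: plate controls were enzyme without inhibitor for no effect and buffer without enzyme for full effect; nearly all actives have a fitted effect of over 40% in size; top concentration of the series not given in the record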
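Detergent-free condition (0.00005% Triton X-100) in acetate buffer pH 5.5 with DTT. 1.5 nM enzyme and compound were pre-mixed 15 min, then 2 uM Z-FR-AMC substrate added; reaction progress from fluorescence change between first and third reads (60 s).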
Starred values were filed as active, the others as inactive; ? = inconclusive; · = not tested or not shown; & = joins results of further samples; [ ] = another dose, or the depositor's remark. Unless noted, calls come from the whole dose curve; as a rule, active = well fitted curve in the direction sought with a large enough effect; inconclusive = small, poorly fitted or top-dose-only effect, or another doubt; inactive = no such curve, though single readings can be large; an effect the other way counts as inactive or inconclusive. Potency is the fitted concentration of half-maximal effect.

SMILES | NS1 inh | LASV entry inh | Cruzain Triton | SARS PLP yeast | Marburg entry inh | RE007 growth inh | 2A StopGo | Cruzain inh noDet
CCOc1ccccc1CNc1nc2nc3c(c(=O)n2[nH]1)CCC3 | -3% | -9% | 1.5% | -3% | 0% | 17% | -13% | 6%
COc1ccc(C(=O)NCc2ccc(C)cc2)cc1S(=O)(=O)N1CCCc2ccccc21 | 16% | -27% | 0.1% | 4% | ? | 2% | 40%[activator] | -30%
CC12CCC(C(=O)NC(c3ccccc3)c3ccccc3)(OC1=O)C2(C)C (stereo unspecified) | -2% | ? | 7.2% | 4% | 1% | -8% | ? | 2%
Cc1nc2c(=O)n(C)c(=O)nc-2n(C)n1 | -43% | 0.56µM* | 1µM* | -62% | 0.89µM* | ? | 2.8µM* | 0.5µM*
O=C1CSC(=S)N1c1ccc(Cl)c(Cl)c1 | -51% | ? | · | -11% | -6%[46.1 µM] | ? | -20% | ·
O=C(NCc1ccc(F)cc1)c1ccc2c(=O)n3c(nc2c1)CCCCC3 | -11% | · | · | 6% | · | -20% | -27% | ·
COc1ccc(C(=O)c2c(N)c(C(=O)Nc3ccccc3Cl)c3ccccn23)cc1 | · | 23%[46.1 µM] | 0.8% | · | 12%[46.1 µM] | · | 0% | 0%
CC(C)N1CCN(CCCc2ccccc2)CC1CCO (stereo unspecified) | 0% | · | · | 1% | · | 5% | -2% | ·
CCCOc1ccc(C(=O)Nc2ccc(Cl)c(-c3nc4ncccc4o3)c2)cc1 | · | -9%[46.1 µM] | -1.0% | · | · | · | 0% | -5%
COc1ccccc1NC(=O)C12CC3CC(C1)CC(c1ccc(C)cc1)(C3)C2 | 21% | ? | 1.2% | -7% | -4% | -6% | 12% | -7%
CCCCN(CC)CCNC(=O)C1CCN(c2nnc(C)c3c(C)n(-c4ccc(C)cc4)nc23)CC1 | · | ? | -4.2% | · | · | · | -9% | -2%
Cc1ccc(NC(=S)NCc2ccc(S(N)(=O)=O)cc2)cc1Cl | · | 16% | · | -1% | -5%[46.1 µM] | 0% | -10% | ·
COc1ccc(C(=O)Cc2cc(OC)c(OC)cc2[N+](=O)[O-])cc1 | 11% | 21% | 0.2% | 5% | ? | -17% | · | -9%
O=C(NCc1ccccc1)C(C(=O)c1ccc(F)cc1)n1ccccc1=O (stereo unspecified) | 12% | -1% | -1.1% | 4% | 4% | -1% | -2% | 6%
O=C(N/N=C/c1ccccc1OC(F)F)c1cc(-c2ccncc2)nc2ccccc12 | · | ? | · | 13µM* | ? | -2% | 14% | ·
Cc1ccc(C(=O)CCC(=O)NCc2ccc(Cl)cc2)cc1 | · | 12% | · | -6% | ? | ? | -17% | ·
Cc1cc(C(=O)COC(=O)C2CCN(C(=O)c3ccc(Cl)cc3)CC2)c(C)n1CC1CCCO1 (stereo unspecified) | · | -19% | · | 6% | 10%[46.1 µM] | 7% | 0% | ·
CC1=C(C)CC(C(=O)NC(C)CCc2ccccc2)C(C(=O)O)C1 (stereo unspecified) | 14% | -33%[46.1 µM] | · | 0% | ? | 27% | -5% | ·
C[C@H]1CCCC(=O)CCCCCc2cc(O)cc(O)c2C(=O)O1 | 1%&3% | ? | ? | -4% | -41%&-41% | -3% | ? | -12%
COc1ccccc1NS(=O)(=O)c1cc(C(=O)N2CC(C)CC(C)C2)ccc1C (stereo unspecified) | -152% | 18% | -5.8% | -28% | 8.2µM* | -11% | -9% | -3%
O=Cc1cn(CCC(=O)O)nc1-c1cc2ccccc2o1 | 16% | 11% | -6.7% | -1% | 11% | 4% | 8% | 14%
COc1ccc(OC)c(Cc2nnc(CCC(=O)NCc3ccc(C)s3)o2)c1 | 6% | 1%[46.1 µM] | · | 0% | 2%[46.1 µM] | 6% | 15% | ·
O=C(/C=C/c1ccc2c(c1)OCO2)NCCCN1CCOCC1 | -4% | 9% | -6.3% | 6% | ? | 2% | -3% | -7%
CCOC(=O)C1(CCOc2ccccc2)CCN(Cc2ccc(F)c(OC)c2)CC1 | -19% | ? | · | 4% | ? | -3% | ? | ·
CCCCn1c(N)c(N(CCOC)C(=O)c2cc(S(=O)(=O)N3CCCCC3)ccc2Cl)c(=O)[nH]c1=O | 15% | 29% | · | 14% | 6% | 17% | -18% | ·

Grouped by structure: the compounds so far containing an aryl methoxy group
SMILES | NS1 inh | LASV entry inh | Cruzain Triton | SARS PLP yeast | Marburg entry inh | RE007 growth inh | 2A StopGo | Cruzain inh noDet
COc1ccc(C(=O)NCc2ccc(C)cc2)cc1S(=O)(=O)N1CCCc2ccccc21 | 16% | -27% | 0.1% | 4% | ? | 2% | 40%[activator] | -30%
COc1ccc(C(=O)c2c(N)c(C(=O)Nc3ccccc3Cl)c3ccccn23)cc1 | · | 23%[46.1 µM] | 0.8% | · | 12%[46.1 µM] | · | 0% | 0%
COc1ccccc1NC(=O)C12CC3CC(C1)CC(c1ccc(C)cc1)(C3)C2 | 21% | ? | 1.2% | -7% | -4% | -6% | 12% | -7%
COc1ccc(C(=O)Cc2cc(OC)c(OC)cc2[N+](=O)[O-])cc1 | 11% | 21% | 0.2% | 5% | ? | -17% | · | -9%
COc1ccccc1NS(=O)(=O)c1cc(C(=O)N2CC(C)CC(C)C2)ccc1C (stereo unspecified) | -152% | 18% | -5.8% | -28% | 8.2µM* | -11% | -9% | -3%
COc1ccc(OC)c(Cc2nnc(CCC(=O)NCc3ccc(C)s3)o2)c1 | 6% | 1%[46.1 µM] | · | 0% | 2%[46.1 µM] | 6% | 15% | ·
CCOC(=O)C1(CCOc2ccccc2)CCN(Cc2ccc(F)c(OC)c2)CC1 | -19% | ? | · | 4% | ? | -3% | ? | ·

(continued)
SMILES | NS1 inh | LASV entry inh | Cruzain Triton | SARS PLP yeast | Marburg entry inh | RE007 growth inh | 2A StopGo | Cruzain inh noDet
CCCCc1ccc(NC2=NCC(=O)N2CCc2ccccc2)cc1 | 0% | -28% | · | -1% | -13%[46.1 µM] | -3% | ? | ·
NC(=O)C1CCN(CC(O)COCc2ccccc2Cl)CC1 (stereo unspecified) | -9% | 7% | · | 2% | -3% | 0% | -5% | ·
Cc1ccccc1NC(=O)OCc1cn(-c2ccc(Cl)cc2)nn1 | 4% | 12% | 5.6% | -2% | -16% | 1% | -3% | ?
N#Cc1cccc(Nc2c3c(nc4ccccc24)CCCC3)c1 | · | ? | · | 2% | ? | 7% | ? | ·
O=C(Oc1ccc(Br)cc1C(=O)/C=C/c1ccccc1F)c1ccco1 | · | ? | · | · | ? | -18% | ? | ·
O=C(CN1CCc2cc3c(cc2C1)OCCCO3)Nc1cccc(Br)c1 | -6% | ? | · | -4% | -25%[46.1 µM] | -8% | -3% | ·
CCOc1cc(CNc2ccc(S(N)(=O)=O)cc2)ccc1OCC(=O)NC(C)(C)C | 2% | -16% | · | 0% | ? | 11% | ? | ·
COc1ccccc1CNC(=O)CSc1ccc(Br)cc1 | 4% | 20% | 0.2% | 20% | ? | 3% | -1% | -7%
Cc1nc2scc(-c3ccccc3)c2c(=O)n1/N=C/c1ccco1 | -5% | -24% | -5.4% | -1% | 5% | 6% | -22% | -7%
CC(=O)Nc1c(Br)cc2c(c1Br)Cc1cc([N+](=O)[O-])ccc1-2 | · | -10%[46.1 µM] | · | · | -19%[46.1 µM] | -10% | -4% | ·
CC(CC(=O)Nc1ncc([N+](=O)[O-])s1)c1ccccc1 (stereo unspecified) | -51% | ? | · | -7% | ? | ? | -1% | ·
Cc1ccc(NC(=O)CSCC(=O)N(C)CC(=O)Nc2cccc(F)c2)cc1 | · | 8%[46.1 µM] | · | 2% | 16% | 5% | 3% | ·
Cc1cc(=O)n(CC(=O)N2CCCCC2)c2c1c(C)nn2C | · | 16%[46.1 µM] | -2.1% | · | · | · | 9% | -2%
O=C(Nc1ccc2oc(-c3cccnc3)nc2c1)c1ccc(-c2ccc(OC(F)(F)F)cc2)o1 | · | -12%[46.1 µM] | -5.1% | · | · | · | -30% | 2%
Cc1ccc(S(=O)(=O)N(C)Cc2ccc(-c3nnc4n3CCC4)cc2)cc1 | -12% | -1% | 1.6% | 0% | 13% | 13% | 12% | 13%
CCOc1ccc(C2C(C#N)=C(N)Oc3c2c(=O)oc2ccccc32)cc1 (stereo unspecified) | 9% | 8% | -5.0% | 7% | ? | -7% | -9% | -16%
COC(=O)c1[nH]c2ccccc2c1NC(=O)CN1CCN(Cc2ccc3c(c2)OCO3)CC1 | 6% | -6% | 4.8% | 7% | -16% | -12% | -29% | 2%
OC(CSc1ccccc1)CN1CCN(c2ccc(Cl)cc2)CC1 (stereo unspecified) | · | ? | · | · | -3%[46.1 µM] | 12% | ? | ·
COc1ccc(OC)c2[nH]c(C(=O)N3CCC(C(=O)O)CC3)cc12 | 4% | · | · | 1% | · | -7% | -11% | ·
Cc1cccc(CSc2cn(CC(=O)N3CCCCC3)c3ccccc23)c1 | · | ? | -8.1% | · | · | · | 24% | 10%
COc1ccc2c(c1O)-c1cccc3c1[C@@H](C2)N(C)CC3 | · | ? | · | · | 1µM* | 10%[18.4 µM] | -24% | ·
Cc1ccsc1C=C1C(=O)c2ccccc2C1=O | -87% | 4% | -3.0% | -17% | 7% | ? | 30%[activator] | 4%
Cc1cc(C(=O)OC(C)C(=O)Nc2cccc(Cl)c2)on1 (stereo unspecified) | · | 6% | · | 1% | -1%[46.1 µM] | 23% | -22% | ·
Cc1ccc(C)c(C(=O)N2CCC(n3nccc3NC(=O)C3CC3)CC2)c1 | -5% | ? | · | 0% | -4% | 8% | -11% | ·
CCCCN(C)C(=O)Cn1nc(Cc2ccncc2)c2ccccc2c1=O | 2% | 11% | · | -1% | -24% | -11% | -11% | ·
Cc1ccc(C(c2nnnn2C2CCCCC2)N2CCN3CCCC3C2)cc1 (stereo unspecified) | 13% | -1% | 3.5% | 1% | ? | -8% | 0% | -8%
